From PubChem BioAssay
TRPML1 agonist: qHTS for Agonists of the Human Mucolipin Transient Receptor Potential 1 (TRPML1); actives 0.12% (n = 410,000); AID 624414, 2012; activation, % (test concentration not listed); TRPML1-expressing cells, Ca2+ dye fluorescence, FDSS; host cell line not named in the record; reference of the full effect not given here; Mucolipin-1 (Homo sapiens), Q9GZU1; in the data active = activation above about 50%; inconclusive = about 30% to 50%; inactive = below about 30%; further: 0% is about no effect; the text of the record puts the active cut at 80%
Target sequence (Q9GZU1 whole entry, looked up): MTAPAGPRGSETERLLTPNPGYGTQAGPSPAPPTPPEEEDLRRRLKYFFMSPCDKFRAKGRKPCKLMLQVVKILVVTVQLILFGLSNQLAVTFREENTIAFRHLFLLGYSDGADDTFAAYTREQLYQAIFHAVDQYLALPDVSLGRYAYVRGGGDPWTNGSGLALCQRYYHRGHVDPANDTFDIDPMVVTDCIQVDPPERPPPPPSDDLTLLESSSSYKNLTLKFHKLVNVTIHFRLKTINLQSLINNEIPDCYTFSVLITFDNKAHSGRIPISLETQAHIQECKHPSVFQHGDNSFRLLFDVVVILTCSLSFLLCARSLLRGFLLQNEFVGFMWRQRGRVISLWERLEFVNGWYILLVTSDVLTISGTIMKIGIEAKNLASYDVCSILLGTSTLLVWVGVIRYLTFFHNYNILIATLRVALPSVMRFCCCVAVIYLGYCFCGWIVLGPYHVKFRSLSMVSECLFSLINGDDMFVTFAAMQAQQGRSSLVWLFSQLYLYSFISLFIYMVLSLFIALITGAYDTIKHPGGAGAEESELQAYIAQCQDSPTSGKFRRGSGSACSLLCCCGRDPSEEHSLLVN
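Tet-induced TRPML1-DL cells, 1,500 per well, cultured overnight, were loaded with a no-wash Ca2+ dye for 45–90 min. Calcium fluorescence was recorded on the FDSS for 110 s after compound addition, before the EC80 agonist (4 uM 54-4) was added.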
D2 ag: Beta-Arrestin HTS for Positive Allosteric Modulators of the Human D2 Dopamine Receptor: Agonists. DiscoveRx PathHunter D2 beta-arrestin, luminescence, 90 min; 100% = 57 uM dopamine signal. D(2) dopamine receptor (Homo sapiens), P14416. activation, % (test concentration not listed). actives 0.084% (n = 360,000); in the data active = activation above about 40%; inconclusive = about 15% to 40%; inactive = below about 15%; further: compound concentration not given in the record; the text of the record calls up to 30% inactive
Target sequence (P14416 whole entry, looked up): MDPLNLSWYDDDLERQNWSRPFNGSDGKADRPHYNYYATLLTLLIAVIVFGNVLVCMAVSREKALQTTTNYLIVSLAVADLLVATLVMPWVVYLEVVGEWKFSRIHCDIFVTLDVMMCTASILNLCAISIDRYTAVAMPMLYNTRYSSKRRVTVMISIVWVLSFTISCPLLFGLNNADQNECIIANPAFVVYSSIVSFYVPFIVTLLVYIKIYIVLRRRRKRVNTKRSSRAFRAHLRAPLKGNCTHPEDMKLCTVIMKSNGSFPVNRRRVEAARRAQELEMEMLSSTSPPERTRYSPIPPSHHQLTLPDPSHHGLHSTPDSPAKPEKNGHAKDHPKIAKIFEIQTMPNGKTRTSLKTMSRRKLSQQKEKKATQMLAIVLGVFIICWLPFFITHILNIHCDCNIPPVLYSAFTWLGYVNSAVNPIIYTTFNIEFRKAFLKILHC
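Agonist mode: compounds alone added to overnight-plated D2 PathHunter cells for 90 min at 37 C, with 57 uM final dopamine (EC100) defining full response. Beta-arrestin recruitment detected by chemiluminescent reagent, read after 1 h at ambient temperature.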
TRPML1 inh: qHTS for Inhibitors of the Human Mucolipin Transient Receptor Potential 1 (TRPML1); AID 624415, 2012; TRPML1-inducible cells, Ca2+ dye fluorescence, FDSS; active compounds read low; inhibition of EC80 agonist-evoked calcium signal; Mucolipin-1 (Homo sapiens), Q9GZU1; activity change, negative = inhibition, % (concentration not given with the values); actives 0.02% (n = 390,000); in the data active means activity change below about -50%; inconclusive means about -30% to -50%; inactive means above about -30%;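 further: stimulus is agonist 54-4 at its EC80 concentration; on the % scale 0 is the no-effect control and ±100 the full control effect; the text of the record puts the active cut at -80%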
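TRPML1-DL cells, Tet-induced overnight (~16 h, 37 °C) at 1,500 cells/well, were loaded with Ca8 no-wash dye plus quencher for 45-90 min at room temperature. Compounds were pinned during FDSS kinetic reading; agonist 54-4 at EC80 (4 uM final) then added.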
Six1-Eya2 blk: qHTS Assay for Inhibitors of the Six1/Eya2 Interaction; Homeobox protein SIX1 (Homo sapiens) + Protein phosphatase EYA2 (Homo sapiens), …; AlphaScreen GST-Six1/His-Eya2 binding, biochemical; active compounds read low; control for the full effect not named in the record; activity change, % (concentration not given with the values); actives 0.56% (n = 360,000); in the data active = activity change below about -65%; inconclusive = about -30% to -65%; inactive = above about -30%; further: on the % scale 0 is the no-effect control and ±100 the full control effect
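Homogeneous AlphaScreen proximity assay pairing GST-Six1 with His-tagged Eya2 (added as 5X mix: 250 nM and 500 nM) in 50 mM Tris pH 8.0, 300 mM NaCl, 1 mM TCEP. Glutathione donor and nickel acceptor beads; 1 h, 37 °C, dark.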
PINK1 modulator: A Quantitative High throughput Screen to Identify Chemical Modulators of PINK1 Expression | actives 0.2% (n = 410,000) | Potency, µM (highest dose often 76.6 µM), for the others: top-dose activation (PINK1 increase), usual class: activators | PINK1 immunofluorescence, high-content cytometry, 24 h; active = well fitted activation curve with a large enough effect; inconclusive = small, poorly fitted or top-dose-only effect; inactive = flat fitted curve, though single readings scatter; cell line not stated here;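 further: potency means the concentration at half of the fitted maximal effect; % of control where 0% means no effect; nearly all actives have a fitted effect of over 65% in size; a mitochondrial uncoupler was the plate control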
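Fluorescence from anti-PINK1 antibody, together with nuclear and cell stains, was scanned on a laser-scanning cytometer. Before staining, stable-line cells were incubated 24 hours with compounds at 5 concentrations; primary antibody 12 h at 10 degrees C.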
D2 PAM: Beta-Arrestin HTS for Positive Allosteric Modulators of the Human D2 Dopamine Receptor: Potentiators | DiscoveRx D2 beta-arrestin cells, luminescence, 90 min; 100% = 57 uM dopamine signal | potentiation, % (test concentration not listed) | actives 0.23% (n = 360,000); active = potentiation of 50% or more; inconclusive = 30% to 50%; inactive = 30% or less;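 further: compound concentration not given in the record; tested on top of an EC20 dose of dopamine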
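PathHunter D2 cells, attached overnight at 37 deg C, received compound in DMSO plus dopamine at EC20 (50 nM final) for 90 min at 37 deg C. Beta-arrestin recruitment was read as luminescence after 1 h with detection reagent at ambient temperature.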
An asterisk follows results filed as active; ? = inconclusive; · = not tested or not shown; & = joins results of further samples; [ ] = another dose, or the depositor's remark.

mol,TRPML1 agonist,D2 ag,TRPML1 inh,Six1-Eya2 blk,PINK1 modulator,D2 PAM
COc1ccc(NS(=O)(=O)c2ccc(-n3cccn3)cc2)cc1OC,0.4,·,7.9,·,2.5%,·
CCN1C(=O)N[C@H](c2ccccc2)C(C(C)=O)=C1C,-0.3,-1.1,-18.4,3.3,-0.3%,-0.7
Cc1ccc2[nH]c(CNC(=O)c3ccccc3F)cc2c1,-0.1,2.9,-21.9,-12.0,2.2%,-7.2
CCCN(CC(=O)Nc1ccccc1OC)C(=O)c1cc(-c2ccccc2)nn1-c1ccccc1,3.0,2.2,-12.9,-13.4,1.7%,2.8
O=C(Nc1nnc([C@@H]2C[C@H](O)[C@@H](CO)O2)s1)Nc1cccc(Cl)c1Cl,-0.5,-2.1,·,3.5,0.0%,-6.3
CC(C)C(=O)Nc1cc(S(=O)(=O)N2CCOCC2)ccc1N1CCCCC1,-1.1,-1.1,-4.8,6.0,4.5%,-1.0
CCCCNC(=O)CSC1=Nc2ccccc2C2=NC(CCC(=O)NCc3ccccc3OC)C(=O)N12 (stereo not given),-0.7,·,12.0,·,-1.4%,·
Fc1cnc(Cl)nc1NC1CCCCC1,0.6,-2.0,36.2,4.0,0.2%,-13.3
Cc1ccnc(NC(=O)COc2c(C)cc(C)cc2[N+](=O)[O-])c1,1.3,-0.7,-7.8,2.6,-0.4%,-20.1
Cc1cccc(-c2noc(CN(C(=O)C(c3ccccc3)c3ccccc3)C(C)C)n2)c1,0.8,6.5,-4.4,4.8,2.7%,-5.8
C=CCNC(=O)c1onc(CSc2ccc(F)c(F)c2)c1C(=O)NCC=C,2.1,-0.9,11.4,5.9,1.2%,-6.5
COc1ccccc1-n1c(SCC(N)=O)nnc1-c1ccc(S(=O)(=O)N2CCCCC2)cc1,6.4,1.0,25.8,-2.3,?,-0.5
Cc1nn(CC(=O)OCC(=O)c2ccccc2)c(C)c1[N+](=O)[O-],0.2,-10.0,10.5,5.6,-0.9%,-6.9
COc1ccc(C2CC(c3c(O)cc(C)oc3=O)=NCCS2)c(OC)c1 (stereo not given),0.4,-4.6,-2.8,-2.6,6.8%,19.8
Cc1ccc(NC(=O)CCNS(=O)(=O)c2ccc3c(c2)CCC(=O)N3)cc1F,-0.5,-0.4,1.8,4.7,-0.3%,-8.2
Cc1ccc(C)c(N2CCN(C(=O)c3ccc(NS(=O)(=O)c4c(C)noc4C)cc3)CC2)c1,0.0,2.5,16.5,-2.1,-1.3%,4.7
COc1ccc2cc(-c3ccccc3)c(=O)oc2c1,0.2,-0.8,-12.4,61.7,1.5%,-6.2
COc1ccc(CNn2c(C)nc3ccccc3c2=O)cc1,0.4,2.1,-17.4,-0.1,-0.8%[38.3 µM],-5.7
COc1ccc(OCCC(=O)NCCN2CCOCC2)cc1,2.0,0.8,-14.2,3.7,-1.3%,-11.2
O=C(c1cnn2cccnc12)N1CCN(c2ccccc2)CC1,0.7,-0.9,16.2,0.1,4.9%[38.3 µM],-0.2
Cc1ccc(S(=O)(=O)N(C)c2cc(S(N)(=O)=O)c(C)cc2C)cc1,-0.2,3.2,2.7,3.6,1.0%,-1.2
Clc1ccc(CSc2nccn2Cc2ccccc2)cc1,5.0,-2.9,79.5,-24.3,2.2%,-18.1
O=C(CSc1nc2c(c(=O)[nH]1)CCC2)Nc1ccccc1F,3.3,·,4.2,·,-0.8%,·
O=C(N/N=C/c1ccc(Sc2ccccn2)o1)c1cc2ccccc2cc1O,-0.5,-2.0,5.5,-29.0,-0.7%,-22.4
Cc1ccc(NC(=O)COC(=O)[C@H](C)N2C(=O)C3CC=CCC3C2=O)cc1S(=O)(=O)N(C)C (stereo not given in full),-0.6,-1.1,-16.1,4.1,4.5%,-6.4
O=C(c1ccc(F)cc1)c1cc2ccc(O)cc2oc1=O,0.2,1.7,6.6,-10.4,2.0%,2.9
O=C(NC1CCCCCC1)c1cc2n(n1)C(C(F)(F)F)CC(c1ccco1)N2 (stereo not given),4.6,-7.0,-24.0,26.9,10.9%,-19.8
CN=C1CC(C)(C)CC(=O)/C1=C(/O)CCC(=O)NC,-0.4,-2.2,1.3,2.8,0.0%,13.0
O=c1sc(Nc2ccccc2)nc2ccsc12,2.0,1.7,4.3,8.4,-2.4%,-11.7
CCc1ccc(NC(=O)CSc2nccn2-c2cccc(C)c2C)cc1,1.4,·,-8.1,·,-5.1%,·
OCCSc1nc(-c2cccnc2)nc2ccccc12,0.0,-3.2,-5.0,-15.5,-2.0%,-2.7
C=C[C@@H]1c2cc(C)ccc2N(S(=O)(=O)c2ccc(C)cc2)[C@H](c2ccc(OC(C)=O)cc2)C1(C#N)C#N,9.9&7.0,-3.7,-18.2,-6.8,11.6%,-4.4
CC(C)(C)CC(=O)Nc1nnc(SCC(=O)N2CCCCC2)s1,-0.2,-3.0,1.7,1.0,0.6%,2.2
Cc1cc(NC(=O)CSc2nc(C(C)(C)C)nc3ccccc23)no1,3.7,-4.7,20.5,7.7,11.6%,-6.9
Cc1ccccc1Cn1c(C)c(C(=O)NCc2cccc(C(F)(F)F)c2)sc1=O,0.8,4.6,·,-7.6,7.4%,-2.6
COc1ccc(NC(=O)Cn2c(=O)n(Cc3ccccc3Cl)c(=O)c3cc(OC)c(OC)cc32)cc1,-0.2,·,-7.8,·,1.9%,·
Cc1ccccc1OCCCn1c(=O)sc2ccccc21,-0.2,-2.4,9.0,45.0,-0.3%,-12.8
Cc1cc(C)cc(NC(c2cccc(Cl)c2)c2nnc(-c3ccccc3)o2)c1 (stereo not given),1.0,·,14.7,·,7.9%,·
COc1cc(/C=C2/C(=O)NN(c3cccc(Cl)c3)C2=O)cc(Br)c1O,3.4,-0.5,40.4,0.7,-1.6%,0.9
CCCn1c(SCC(=O)Nc2ccccc2OC)nnc1-c1ccco1,-0.6,-2.6,-2.4,-1.4,4.4%,-7.1
N#C/C(C(=O)N1CCOCC1)=C1/SC(Cc2ccc(F)cc2)C(=O)N1c1ccccc1 (stereo not given),1.6,-2.9,-26.4,-0.8,1.9%,-1.5
CCCC(CNC(C)=O)(C1=CCCCC1)c1ccccc1 (stereo not given),-0.8,-2.8,3.4,-1.9,3.1%,-11.7
CC1CN(C2CCCCC2)C(=O)NC1=O (stereo not given),-0.3,1.2,1.2,1.9,0.8%,-2.0
COc1ccccc1CNC(=O)c1cc2cc(S(=O)(=O)N3CCCCC3)ccc2n1C,0.0,·,1.1,·,1.4%,·
Cc1ccc(-n2c(=O)cc(N3CC(C)CC(C)C3)[nH]c2=O)cc1 (stereo not given),-0.3,2.4,-2.6,1.2,18.9%[38.3 µM],7.3
COc1cccc(N(C(=O)c2snc(C(N)=O)c2N)C(C(=O)NCC2CCCO2)c2ccc(F)cc2)c1 (stereo not given),-0.1,2.4,-3.5,12.2,2.2%,-26.5
COc1ccc(S(=O)(=O)NCc2ccc(C(=O)O)cc2)cc1,-0.3,4.0,2.5,5.0,3.7%[38.3 µM],3.2
CCOc1ccc(OCC(=O)OCC(=O)NCC2CCCO2)cc1 (stereo not given),0.5,0.2,17.1,7.2,0.3%,-3.8

Four of the compounds above, with values under each structure:
The line under a structure holds: TRPML1 agonist	D2 ag	TRPML1 inh	Six1-Eya2 blk	PINK1 modulator	D2 PAM
> Cc1ccc(C)c(N2CCN(C(=O)c3ccc(NS(=O)(=O)c4c(C)noc4C)cc3)CC2)c1
    0.0	2.5	16.5	-2.1	-1.3%	4.7
> COc1ccc2cc(-c3ccccc3)c(=O)oc2c1
    0.2	-0.8	-12.4	61.7	1.5%	-6.2
> COc1ccc(CNn2c(C)nc3ccccc3c2=O)cc1
    0.4	2.1	-17.4	-0.1	-0.8%[38.3 µM]	-5.7
> COc1ccc(OCCC(=O)NCCN2CCOCC2)cc1
    2.0	0.8	-14.2	3.7	-1.3%	-11.2

The results go on.
mol,TRPML1 agonist,D2 ag,TRPML1 inh,Six1-Eya2 blk,PINK1 modulator,D2 PAM
COC(=O)c1cc2c(s1)-c1ccccc1OC2,1.0,-4.8,-4.3,12.0,2.4%,-9.5
Cc1nn(-c2ccc(Br)cc2)c(=O)c2ccccc12,-0.1,-0.6,-13.5,-9.4,4.1%,-3.2
COc1ccc(/C=C(\C#N)c2cc(OC)c(OC)cc2[N+](=O)[O-])cc1,0.9,-0.4,-23.3,3.2,3.4%,-1.8
CC(C)(Cc1ccc(O)cc1)NC(=O)CC(=O)N=Nc1c(O)[nH]c2cc(Br)ccc12,1.4,-6.2,-15.4,-3.8,-0.7%,-16.2
CC1=C(C(=O)N2CCOCC2)CC(CC(=O)NCc2cccs2)C(=O)N1Cc1ccc(F)cc1 (stereo not given),·,-1.3,·,-2.4,0.1%,·
CC(=O)c1ccc(N2CCN(C(=O)CCS(=O)(=O)c3ccc4c(c3)NC(=O)CS4)CC2)cc1,-0.7,-0.9,-12.7,-1.3,-0.9%,-2.3
CCn1c(SCC(=O)C(C)(C)C)nnc1-c1ccccn1,0.1,-0.5,22.1,-1.0,-0.4%[38.3 µM],-0.6
CCC(CC)NC(=O)COC(=O)CCC(=O)c1cccs1,0.4,0.1,-1.1,5.7,-1.0%,-6.8
CC(=O)N1c2ccc(S(=O)(=O)N(C)C3CCCCC3)cc2CC1C (stereo not given),0.1,-2.2,35.3,2.7,-0.9%,-10.8
CCC(C)OC(=O)n1ccc(C(=O)Nc2nccs2)n1 (stereo not given),0.7,-0.3,-6.2,-12.7,·,-1.7
CC(OC(=O)/C=C/c1ccco1)C(=O)NC1CCCCC1C (stereo not given),1.0,-1.2,-3.7,6.0,0.3%,-1.2
Cc1cc(-c2n[nH]c(=S)n2-c2ccccc2C)cs1,1.3,-0.8,14.0,0.2,0.1%,-0.9
CCOc1ccccc1C(=O)N1CCC(c2nc3ccccc3o2)CC1,1.8,·,-6.6,·,0.7%,·
CCc1cccc2c(=O)c(C(=O)NCCN3CCOCC3)c[nH]c12,0.5,0.7,5.4,5.5,2.0%,-15.4
O=C(C1CC(=O)N(c2ccc(F)cc2)C1)N1CCCCCC1 (stereo not given),0.7,-0.5,4.2,-1.7,-0.6%,4.0
C/C(=N\OC(=O)c1ccccc1)c1c(C)nc2cc(C)ccn12,0.3,-1.0,-4.1,10.1,1.2%,-2.4
